Screens deposited in PubChem by several laboratories.
Arbovirus anti: arbovirus infection inhibition. 200,000 compounds, 0.37% hits. inhibition, % at 10 µM. arbovirus infection cell-based antiviral screen;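 active = inhibition from about 30%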;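 also: bluetongue infection of BSR cells; cell survival read as ATP light after 72 h; 0% = infected wells without compound and 100% = uninfected wells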
Mtb bLac sens: beta-lactam sensitization of Mtb H37Rv | AID 434955 | inhibition, % at 25 µM | 330,000 compounds, 0.27% hits | M. tuberculosis H37Rv growth with meropenem, percent inhibition; hits of this screen are not shown here;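 active = about 74% or more and at least 40 points above the plate without the antibiotic, then above 30% in a dose series; inconclusive = first-round hits that could not be retested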;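 also: growth measured after seven days incubation then overnight dye step; 0% = bacteria only wells and 100% = bacteria with antibiotic; twin plates without the antibiotic show which effects depend on it; some results filed as inactive read as strong as hits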
Mtb growth: M. tuberculosis H37Rv growth inhibitors, H37Rv strain (AID 1626) | M. tuberculosis H37Rv growth inhibition; higher % means a stronger effect | 220,000 compounds, 0.95% hits | inhibition, % at 10 µM; hits with a dose series show IC50 in µM;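 active = confirmed in a dose series; inconclusive = inhibition above 80% but not taken into the dose series; inactive = below 80% or under 30% at every dose of the series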;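 also: bacteria incubated seven days before Alamar blue readout; 0% = bacteria only wells and 100% = bacteria with antibiotic wells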
RecA splice inh: blocks M. tuberculosis RecA intein splicing. P9WHJ3. cell-free RecA intein splicing, fluorescence. inhibition, %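 (about 9 µM by stock and volumes)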. 290,000 compounds, 0.75% hits. AID 2221; in the data active = inhibition above about 30%; inconclusive = no clear call, values can overlap the other calls;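 also: 0% = vehicle wells and 100% = reference inhibitor control wells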
Target sequence (P9WHJ3 whole entry, looked up, canonical isoform): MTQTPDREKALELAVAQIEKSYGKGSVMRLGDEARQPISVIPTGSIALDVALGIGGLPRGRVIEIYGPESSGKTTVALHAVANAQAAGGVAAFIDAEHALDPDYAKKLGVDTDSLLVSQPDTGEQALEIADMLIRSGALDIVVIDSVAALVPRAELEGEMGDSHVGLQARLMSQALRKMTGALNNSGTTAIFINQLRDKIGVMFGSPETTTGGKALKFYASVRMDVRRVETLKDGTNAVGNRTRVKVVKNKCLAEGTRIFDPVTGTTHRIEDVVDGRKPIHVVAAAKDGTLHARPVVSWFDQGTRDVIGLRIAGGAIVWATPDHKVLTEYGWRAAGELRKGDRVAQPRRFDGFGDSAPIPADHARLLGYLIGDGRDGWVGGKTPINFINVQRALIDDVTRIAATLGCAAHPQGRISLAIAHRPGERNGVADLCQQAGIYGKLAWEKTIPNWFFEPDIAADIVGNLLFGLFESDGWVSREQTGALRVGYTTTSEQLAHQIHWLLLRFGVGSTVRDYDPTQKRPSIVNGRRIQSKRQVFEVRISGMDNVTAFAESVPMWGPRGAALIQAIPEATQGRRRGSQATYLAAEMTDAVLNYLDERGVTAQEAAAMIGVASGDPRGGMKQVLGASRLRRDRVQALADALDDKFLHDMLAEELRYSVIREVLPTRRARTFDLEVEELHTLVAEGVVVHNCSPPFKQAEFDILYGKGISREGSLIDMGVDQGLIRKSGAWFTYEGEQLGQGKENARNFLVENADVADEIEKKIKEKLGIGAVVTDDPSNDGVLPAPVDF
YopH inh: blocks Yersinia enterocolitica YopH tyrosine phosphatase. fluorescence Ex485/Em525. inhibition, %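 (about 10 µM by stock and volumes)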. 140,000 compounds, 0.16% hits;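 active = inhibition of 50% or more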;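 also: controls were vehicle for no effect and minimum signal wells for full effect; inactives centre near -20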
Arbovirus anti repeat: also measured in Arbovirus anti; calls as there; inhibition, %; measured here: 10K subset replicate screen; many hits read low in the repeat;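 first of two repeat runs on a subset; 0% = infected and 100% = uninfected wells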
An asterisk follows results filed as active; ? = inconclusive; . = no result given. An excerpt, so the mix of outcomes need not match the whole.

SMILES	Arbovirus anti	Mtb bLac sens	Mtb growth	RecA splice inh	YopH inh	others
Cc1ccnc(NS(=O)(=O)c2ccc(NC(=O)c3ccc(S(=O)(=O)N4CC(C)OC(C)C4)cc3)cc2)n1 (stereo unspecified)	-2	4	-2%	0.9	-45
CCSC1=N/C(=C\c2ccc(C(=O)O)cc2)C(=O)S1	2	1	-2%	-0.9	-53	Arbovirus anti repeat=0
O=c1c2ccccc2c(/C=N/NS(=O)(=O)c2ccccc2)c(O)n1-c1ccccn1	24	2	7%	.	.
OC(CN1C2=NCCN2c2ccccc21)c1ccc2c(c1)OCO2 (stereo unspecified)	2	-8	-4%	5.2	-31
CN(C(=O)Nc1ccccc1)C1CCCCC1	.	-10	-2%	-1.1	.
OC(CCc1ccncc1)c1ccccc1 (stereo unspecified)	.	-24	.	-0.4	.
CC(C)(C)[C@@H]1C=C(C(=O)NC2CC2)O[C@H](OCc2ccc(CO)cc2)C1	7	11	-5%	-0.8	.
CN(C)S(=O)(=O)c1ccc(S(=O)(=O)N2CCCC(C(=O)NC3CCCC3)C2)cc1 (stereo unspecified)	.	3	.	-0.1	.
O=C(N/N=C/c1cccs1)C(=O)N1CCCC1	1	-2	-30%	-1.8	.
CCC(C(=O)N1CCN(C(=O)c2ccco2)CC1)n1sc2ccccc2c1=O (stereo unspecified)	.	-6	.	3.2	.
COc1ccc(C(=O)N2CCC(n3nccc3NC(=O)C3CCOC3)CC2)cc1 (stereo unspecified)	.	?	.	1.4	.
Nc1nnc(-c2ccc(Cl)cc2)s1	-5	68	50%	-9.7	9
C1CNC(C23CC4CC(CC(C4)C2)C3)=N1	16	0	7%	1.7	.
COc1ccccc1Nc1nc(-c2ccc3c(c2)NC(=O)CO3)cs1	-15	4	-3%	3.3	.
O=C(CSc1ccncc1)Nc1ccc(S(=O)(=O)Nc2nccs2)cc1	15	-7	-4%	-3.0	.
O=C(CCNC(=O)c1ccc(Cl)cc1)Nc1c(F)c(F)cc(F)c1F	9	1	9%	4.6	-10
CCc1c(C(=O)Nc2ccc(S(=O)(=O)N3CCOCC3)cc2)csc1C	-3	18	-6%	2.2	31
CCc1nc2ccccc2c(NC(=O)CN2CCC(C)CC2)c1C	5	0	1%	-3.8	-20
Cc1cc(CN(C)C(=O)C2CCC(=O)N(CCc3cccc(F)c3)C2)on1 (stereo unspecified)	.	-2	.	-1.2	.
COC(=O)C1(c2ccccc2)NC(c2cccs2)C2C(=O)N(c3ccccc3)C(=O)C21 (stereo unspecified)	4	-2	-9%	5.9	1
CCOC(=O)c1[nH]c2ccccc2c1NC(=O)CC(C)C	.	-2	6%	1.3	.
CC(=O)Nc1ccc2nc(C3CC3)n(Cc3ccc(Cl)cc3)c(=O)c2c1	0	-4	.	-2.6	.
O=C(NCCCn1ccnc1)c1ccc(C(F)(F)F)cc1	.	0	.	-2.4	.
Cc1nn(C)c(C)c1CNC(=O)Nc1ccc2c(c1)OCO2	-5	-4	1%	-0.5	.
O=C(CNC(=O)c1ccccc1F)N/N=C/c1cc(Br)ccc1OC(=O)/C=C/c1ccco1	-20	59	-5%	1.5	-17
The results go on:
SMILES	Arbovirus anti	Mtb bLac sens	Mtb growth	RecA splice inh	YopH inh	others
CC(/C=N/NC(=O)c1ccncc1)=C\c1ccccc1	13	99	?	6.0	-10
CCc1nnc(N/N=C/c2ccccc2Cl)n1N	5	-3	-5%	1.0	-7
Cc1ccc(NC(=O)CN2CCN(C(=O)c3ccco3)CC2)cc1	.	-5	.	1.1	.
O=C1NC(Cc2c[nH]c3ccccc23)C(=O)N1CCOc1ccccc1 (stereo unspecified)	8	2	-2%	-0.2	2
O=S(=O)(Nc1nc2ccccc2nc1-[n+]1cccc(N=C([O-])c2ccc(Cl)cc2)c1)c1ccccc1	.	-7	10%	-0.4	.
O=C(O)c1cc([N+](=O)[O-])c(N2CCCC2)c([N+](=O)[O-])c1	0	1	3%	1.9	-29
CC1(C)Cc2c(sc(N)c2C#N)C(C)(C)N1	5	4	0%	-0.2	.
Cc1cc(-c2nnc(CCC(=O)N(C)Cc3cccc4ccccc34)o2)no1	1	-2	4%	4.6	.
N#Cc1nc(-c2ccc(OCc3ccccc3)cc2)oc1NCCCN1CCOCC1	-29	70	-1%	0.5	9
O=C(NN=C1CCCC1)c1cc(-c2ccc(F)cc2)nc2ccccc12	1	1	-5%	0.9	.
CCOc1cc(-c2noc(CCC(=O)N3CCOCC3)n2)ccc1OC	3	-5	5%	0.5	-41
CC(C)c1nc(SCC(=O)Nc2ccc3c(c2)OCCO3)c2c(=O)n(C)c(=O)n(C)c2n1	-6	11	-7%	-6.3	-25	Arbovirus anti repeat=-6
CSc1nc2c(cc1C#N)CCC2	.	2	3%	3.0	.
COc1ccc(CNc2ncnc(N)n2)cc1	-21	-4	1%	-1.7	-22
CCOC(=O)N1CCN(C(=O)c2cnsn2)CC1	4	5	3%	1.3	5
O=C(Cc1ccccc1Cl)NCCCn1ccnc1	2	1	-4%	0.3	-10
Cc1nn(C(C)C(=O)NCc2ccccc2Cl)c(=O)c2c1sc1ccccc12 (stereo unspecified)	1	-7	-6%	0.5	-8
C=CCc1cc(Cl)ccc1OCCNCCN1CCOCC1	-31	64	4%	-1.6	.
C/C(=N/NC(=O)c1cc(C)[nH]n1)c1ccco1	.	-3	3%	-2.7	.
O=C(CN1C(=O)S/C(=C\C=C\c2ccccc2)C1=O)Nc1ccccc1C(=O)O	.	1	-1%	60*	.
CCO[C@@H]1OC(C(=O)N2CCOCC2)=C[C@H](C2CC2)[C@H]1CCCO	2	-6	-9%	-1.1	.
CCOC(=O)c1c(-c2cccc3ccccc23)csc1NC(=O)C1C2CCC(O2)C1C(=O)O (stereo unspecified)	30	-6	0%	5.3	-22
CCn1c(SCC(=O)OC)nnc1-c1ccccc1	1	3	-17%	-2.3	.
COc1ccc(Cl)cc1C(=O)NCCc1ccc(S(=O)(=O)NC(=O)NC2CCCCC2)cc1	8	2	-10%	-2.1	0
O=C(Nc1cnn(Cc2ccc(F)cc2)c1)C(c1ccccc1)c1ccccc1	10	5	-3%	2.7	-13
(list continues)
SMILES	Arbovirus anti	Mtb bLac sens	Mtb growth	RecA splice inh	YopH inh	others
CN(Cc1nc(-c2ccc(C(F)(F)F)cc2)no1)C1CCOCC1	-3	4	-7%	-2.4	.
O=C(O)c1cccnc1SCc1cccc(Cl)c1	12	3	1%	0.2	.
COc1ccc(C(C)NC(=O)C23CC4CC(CC(C4)C2)C3)cc1OC (stereo unspecified)	.	2	.	0.9	.
Cc1ccc(S(=O)(=O)N2CCCC2C(=O)n2nc(C)cc2C)cc1 (stereo unspecified)	1	-4	.	-5.6	-37
O=C(Cn1nc(C(=O)O)c2ccccc2c1=O)NCc1ccco1	8	1	-5%	-0.8	.
COc1ccc(NC(=S)Nc2ccc(S(=O)(=O)N3CCOCC3)cc2)c(OC)c1	-1	3	0%	-2.9	-5
COc1ccc(N(CC(=O)N2CCN(c3cc(C)ccc3C)CC2)S(=O)(=O)c2c(C)noc2C)cc1	.	-11	.	0.9	.
O=C(Cc1ccc(S(=O)(=O)N2CCOCC2)s1)N(Cc1ccccc1)c1ccccc1	.	0	.	7.6	.
O=C(/C=C/c1ccco1)N1CCN(c2ccccc2)CC1	4	7	-1%	1.9	-8
COc1ccc(OCc2nnc(SCC(=O)NC3CC4CCC3C4)o2)cc1 (stereo unspecified)	.	3	.	0.4	.
CN(C)c1ccc(C(=S)N2CCOCC2)cc1	13	5	1%	.	-27
C=CCN(CC=C)Cc1c(C)[nH]c2c(C)c(C)ccc2c1=O	5	1	2%	4.0	.
Cc1cc(C)nc(N/N=C/c2cccc([N+](=O)[O-])c2)n1	.	-10	9%	-1.5	.
CCOc1ncccc1C(=O)OCC(=O)NCc1ccc2c(c1)OCO2	-18	1	1%	0.1	.
COc1ccc(-n2c(Cc3cccn3C)nnc2SCC(=O)Nc2cccc(F)c2)cc1	21	-5	11%	5.8	-22
CC(=O)Nc1ccc(OC(F)(F)Cl)cc1	7	6	-2%	-3.1	.
N=c1sccn1Cc1ccccc1F	.	-5	.	-1.2	.
CC(NC(=O)c1cccc(S(=O)(=O)N(C)C)c1)c1nc2ccccc2[nH]1 (stereo unspecified)	14	-9	2%	0.3	.
c1ccc(CSc2ncnc3ccccc23)cc1	4	-9	11%	2.4	.
C[C@H](C(O)c1ccccc1)N(C)C(=O)CN (stereo partly specified)	.	-7	.	2.5	.
Cc1ccc(C(=O)N/C(=C\c2ccc(-c3ccccc3[N+](=O)[O-])o2)C(=O)NCCCN(C)C)cc1	.	?	.	14	.
CC(=O)Nc1ccc(NC(=O)Cn2c(=O)n(-c3ccc(C)cc3)c(=O)c3oc4ccccc4c32)cc1	5	-4	7%	0.9	.
COC(=O)CCc1nc2c(C#N)c(-c3ccc(Cl)cc3)ccn2n1	9	99	24%	-3.0	.
CC(NC(=O)c1ccco1)C(=O)N1CCCCC1 (stereo unspecified)	.	-18	.	-0.3	.
O=C(Oc1ccc(Cl)c2cccnc12)c1cccnc1	.	100	.	-6.1	.
The list goes on:
SMILES	Arbovirus anti	Mtb bLac sens	Mtb growth	RecA splice inh	YopH inh	others
CCCc1ccc(OC(=O)c2ccc(O)cc2Cl)cc1	16	2	7%	6.2	.
CC1(C)CC(=O)C=C(Nc2ccccc2N)C1	.	1	.	-5.2	.
CN(NC1OC(=O)c2ccccc21)c1ncc(C(F)(F)F)cc1Cl (stereo unspecified)	.	-2	-3%	-4.1	.
N#Cc1cccc(NC(=O)NCCc2c[nH]c3ccccc23)c1	-7	-4	.	1.2	-14	Arbovirus anti repeat=-5
CC1(OC(=O)CCc2ccccc2)C(=O)C=C2C=C(c3ccc(C#N)cc3)N(C3CCCCC3)C=C2C1=O (stereo unspecified)	.	7	-6%	2.2	.
CCOC(=O)N1CCN(C(=O)c2cn(CC)c3ccc(S(=O)(=O)N4CCOCC4)cc3c2=O)CC1	.	-7	.	-6.3	.
Brc1ccc(-c2noc(COc3ccc4c(c3)CCC4)n2)o1	8	5	15%	1.8	-30	Arbovirus anti repeat=9
CCC(C)(C)NC(=O)C(c1ccco1)N(C(=O)c1csnn1)c1cccc(F)c1 (stereo unspecified)	2	-8	3%	6.9	2
COC(=O)C1=C(C(=O)OC)[C@@H]2N(C)c3ccc(OC)cc3[C@@]23C[C@@H](C(=O)OC)N(C(=O)c2cccs2)C3=N1	.	-1	.	1.5	.
CCCCN(C)Cc1cc(=O)oc2cc3c(cc12)CCCC3	.	.	10%	11	.
S=C1NCN(Cc2ccco2)CN1Cc1ccco1	.	-5	-8%	0.2	.
OCCOc1ccc(CN2CCCC(N3CCN(c4ccc(F)cc4)CC3)C2)cc1 (stereo unspecified)	.	-4	.	-2.2	.
CCn1c(-c2ccccc2)c(C(=O)CC#N)c2ccccc21	1	-3	0%	-0.7	.
O=C(CN1CCCC1)N/N=C/c1c(O)ccc2ccccc12	.	4	.	-3.6	.
O=C(Nc1ccc2c(c1)OCO2)C1CCCN(c2nc3ccccc3s2)C1 (stereo unspecified)	11	1	6%	-0.6	-20
O=C(NCC(=O)N(c1ccc(F)cc1)C(C(=O)NC1CCCCC1)c1ccncc1)c1ccco1 (stereo unspecified)	.	8	.	0.0	.
CCOC(=O)c1ccccc1-c1cn2cc(Cl)ccc2n1	-8	-1	-4%	0.5	.
O=C(CCN1C(=O)COc2ccccc21)NCc1ccco1	6	7	1%	2.4	-22
CCCN1CCC(NC(=O)CC2C(=O)NCCN2Cc2cccc(OC)c2)CC1 (stereo unspecified)	.	-6	.	-1.6	.
O=C(CN1CCN(Cc2ccccc2)CC1)N=Nc1c(O)[nH]c2ccccc12	-10	0	-4%	-0.3	-17
COc1cc(Nc2c3ccccc3nc3ccccc23)cc(OC)c1OC	.	48	.	25	.
COc1ccc(/C=C\C(=O)c2c(O)ccc3c(C)cc(=O)oc23)cc1OC	-15	99	20%	-0.2	-27
